Compound activity: PubChem, several laboratories
Mtb bLac sens: beta-lactam sensitization of Mtb H37Rv | M. tuberculosis H37Rv growth with meropenem, percent inhibition; hits of this screen are not shown here | inhibition, % at 25 µM | hit rate 0.27% among 330,000;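 active means about 74% or more and at least 40 points above the plate without the antibiotic, then above 30% in a dose series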;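 further: growth measured after seven days incubation then overnight dye step; 0% = bacteria only wells and 100% = bacteria with antibiotic; twin plates without the antibiotic show which effects depend on it; some results filed as inactive read as strong as hits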
YopH inh: inhibitors of Yersinia enterocolitica YopH tyrosine phosphatase; fluorescence Ex485/Em525; inhibition, %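 (about 10 µM by stock and volumes)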; hit rate 0.16% among 140,000; AID 898;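 active means inhibition of 50% or more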;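 further: controls were vehicle for no effect and minimum signal wells for full effect; inactives centre near -20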
Arbovirus inh: blocks arbovirus infection; inhibition, % at 10 µM; arbovirus infection cell-based antiviral screen; hit rate 0.37% among 200,000; AID 1251;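 active means inhibition from about 30%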;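 further: bluetongue infection of BSR cells; cell survival read as ATP light after 72 h; 0% = infected wells without compound and 100% = uninfected wells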
Mtb H37Rv: M. tuberculosis H37Rv growth inhibitors, H37Rv strain (AID 1626). M. tuberculosis H37Rv growth inhibition; higher % means a stronger effect. one-dose inhibition, % at 10 µM; IC50 in µM for titrated hits. hit rate 0.95% among 220,000;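 active means confirmed in a dose series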;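 further: bacteria incubated seven days before Alamar blue readout; 0% = bacteria only wells and 100% = bacteria with antibiotic wells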
RecA splice inh: Mtb RecA intein splicing inhibition | cell-free RecA intein splicing, fluorescence | inhibition, %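 (about 9 µM by stock and volumes)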 | hit rate 0.75% among 290,000 | AID 2221; in the data active means inhibition above about 30%;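 further: 0% = vehicle wells and 100% = reference inhibitor control wells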
Target sequence (P9WHJ3 whole entry, looked up, canonical isoform): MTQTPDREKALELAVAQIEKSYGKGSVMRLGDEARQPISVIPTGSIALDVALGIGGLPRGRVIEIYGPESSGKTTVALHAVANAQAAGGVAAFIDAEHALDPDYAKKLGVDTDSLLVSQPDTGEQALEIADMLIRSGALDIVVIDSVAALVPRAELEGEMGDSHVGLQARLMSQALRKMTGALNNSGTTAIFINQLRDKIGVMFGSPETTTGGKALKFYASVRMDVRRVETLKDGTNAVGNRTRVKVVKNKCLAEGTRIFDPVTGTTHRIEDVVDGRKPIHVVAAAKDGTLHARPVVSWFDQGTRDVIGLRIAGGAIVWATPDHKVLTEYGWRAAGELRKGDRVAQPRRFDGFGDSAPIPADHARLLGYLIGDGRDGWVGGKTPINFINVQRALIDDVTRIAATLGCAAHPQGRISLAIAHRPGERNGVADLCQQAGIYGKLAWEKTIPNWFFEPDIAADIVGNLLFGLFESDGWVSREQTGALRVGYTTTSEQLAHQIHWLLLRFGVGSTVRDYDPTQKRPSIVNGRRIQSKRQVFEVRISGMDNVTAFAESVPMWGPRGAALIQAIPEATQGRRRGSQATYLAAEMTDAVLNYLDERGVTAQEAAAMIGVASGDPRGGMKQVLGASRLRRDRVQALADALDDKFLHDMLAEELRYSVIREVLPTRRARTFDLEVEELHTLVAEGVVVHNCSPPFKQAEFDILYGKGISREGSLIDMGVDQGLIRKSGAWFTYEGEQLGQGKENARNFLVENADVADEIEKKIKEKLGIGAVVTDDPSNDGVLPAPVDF
Arbovirus inh repeat: also measured in Arbovirus inh; calls as there; inhibition, %; measured here: 10K subset replicate screen; many hits read low in the repeat;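 first of two repeat runs on a subset; 0% = infected and 100% = uninfected wells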
* = called active by the depositor; . = not tested or not shown. These rows are one share of the data, so the mix of outcomes need not match the whole.

SMILES	Mtb bLac sens	YopH inh	Arbovirus inh	Mtb H37Rv	RecA splice inh	others
Cc1ccc(-c2nc(NC(=O)CSc3ccc4ccccc4n3)ns2)cc1	3	-25	5	0%	-1.2
Cc1cc(C)cc(NC(=O)[C@H](NC(=O)[C@@H]2Cc3ccccc3CN2)c2ccccc2)c1	8	.	.	.	2.7
Cc1cccc(N=C2NC(=O)/C(=C/c3cccnc3)S2)c1C	4	.	.	6%	2.2
Cc1[nH]n(C(N)=S)c(=O)c1N=Nc1cccc(Cl)c1	7	.	.	.	1.4
O=C(O)CCc1nc2ccccc2c(=O)[nH]1	-10	.	.	-17%	-5.3
CCCOc1ccc(/C=N/Nc2ccccc2[N+](=O)[O-])c(OCCC)c1	-4	-18	15	6%	4.1
O=C(c1ccc2ccccc2c1)N1CCN(c2ccc([N+](=O)[O-])c(N3CCOCC3)c2)CC1	5	-15	10	1%	6.9
O=C(CN(Cc1ccco1)C(=O)CNS(=O)(=O)c1ccc(F)cc1)NCc1ccc(F)cc1	7	-30	8	-3%	0.1
CCCCCCCCCCCCS(=O)(=O)CCC(=O)O	0	.	.	-6%	-1.4
Cc1ccnc(SCC(=O)N2CCCc3ccccc32)n1	5	.	0	-5%	-0.9
COc1ccc(-c2onc(C)c2-c2cnn(-c3ccccc3)c2)c(O)c1C	8	.	16	12%	4.3
COc1ccc(NC(=O)CN(C)S(=O)(=O)c2ccc3c(c2)n(C)c(=O)c(=O)n3C)cc1	4	.	.	.	-2.5
COc1ccc(NC(=O)c2sc3nc(-c4cccnc4)ccc3c2N)cc1OC	-6	.	.	-7%	-10
Cn1c(=O)oc2cc(S(=O)(=O)N3CCCC(C(=O)Nc4ccccn4)C3)ccc21 (stereo unspecified)	3	-30	7	-8%	0.0
O=C(Nc1ccc2nc3n(c(=O)c2c1)CCCC3)c1cccc(F)c1	-4	.	.	.	-2.7
CCc1cccc(CC)c1N(COC)C(=O)Cn1ccccc1=N	-7	-37	0	-2%	-0.9
COc1ccc(C(=O)CCC(=O)Nc2ccc(N3CCCCC3)cc2)cc1OC	11	.	.	.	-2.1
Cc1ccc(S(=O)(=O)/N=C2/NC(=O)/C(=C\c3cc(Br)cc(Br)c3O)S2)cc1	8	.	.	.	21
N#Cc1nc(COc2ccccc2)oc1N1CCN(Cc2ccccc2)CC1	-2	-32	10	4%	0.8
CCc1c(C)nc(SC(C(=O)O)c2ccccc2)c(C#N)c1C (stereo unspecified)	0	-29	1	-5%	0.4
COC(=O)c1sc2ccccc2c1-n1cccc1C(=O)C(=O)Nc1ccc(F)cc1	0	11	-11	4%	7.3
CCCCn1c(SCC(N)=O)nc2c(sc3ccccc32)c1=O	4	4	-4	-3%	-1.7
CC1Oc2cc3oc4c(O)c(O)ccc4c(=O)c3c(O)c2C1(C)C (stereo unspecified)	2	.	.	-3%	.
CCn1cc(C(=O)Nc2ccc(F)c(F)c2)cn1	0	-12	2	1%	2.3
O=C(COC(=O)c1ccccc1[N+](=O)[O-])NCCCc1ccccc1	-5	.	.	.	-6.3

Next section, overlapping the part above by seven compounds.
SMILES	Mtb bLac sens	YopH inh	Arbovirus inh	Mtb H37Rv	RecA splice inh	others
N#Cc1nc(COc2ccccc2)oc1N1CCN(Cc2ccccc2)CC1	-2	-32	10	4%	0.8
CCc1c(C)nc(SC(C(=O)O)c2ccccc2)c(C#N)c1C (stereo unspecified)	0	-29	1	-5%	0.4
COC(=O)c1sc2ccccc2c1-n1cccc1C(=O)C(=O)Nc1ccc(F)cc1	0	11	-11	4%	7.3
CCCCn1c(SCC(N)=O)nc2c(sc3ccccc32)c1=O	4	4	-4	-3%	-1.7
CC1Oc2cc3oc4c(O)c(O)ccc4c(=O)c3c(O)c2C1(C)C (stereo unspecified)	2	.	.	-3%	.
CCn1cc(C(=O)Nc2ccc(F)c(F)c2)cn1	0	-12	2	1%	2.3
O=C(COC(=O)c1ccccc1[N+](=O)[O-])NCCCc1ccccc1	-5	.	.	.	-6.3
S=C(Nc1ccc(Cc2ccncc2)cc1)Nc1cccc(Cl)c1	-6	.	-7	-12%	2.9
COc1cc(C(=O)OCn2nnc3ccccc3c2=O)cc(OC)c1OC	57	-16	4	2%	-1.1
Cc1ccc(OCc2nnc(SCC(=O)Nc3ccc4c(c3)OCCO4)n2Cc2ccco2)cc1	82	-53	-2	6%	2.9
Cc1nc2c3ccccc3nc(SCC(=O)N3CC(C)CC(C)C3)n2n1 (stereo unspecified)	-10	-18	-3	.	6.6
COc1cc(NC(=O)C2CCCCC2)c(OC)cc1NC(=O)CN1CCCCC1	.	-31	-20	6%	-0.1
COc1cc(OC)c(C2=NOC(C(=O)Nc3c(C)n(C)n(-c4ccccc4)c3=O)C2)cc1Cl (stereo unspecified)	3	.	14	-5%	-0.6
Cc1c(NC(=O)CSc2nnc(COc3ccccc3)n2-c2ccccc2)c(=O)n(-c2ccccc2)n1C	3	-8	6	-7%	2.0
Cc1ccc(CN2CCC(Oc3ccc(C(=O)NCc4ccccn4)cc3)CC2)o1	-10	.	.	.	0.4
Cc1ccc(C(=O)COC(=O)CCC(=O)Nc2cc(Cl)ccc2Cl)cc1[N+](=O)[O-]	1	-21	3	-5%	-5.1
CN(CCc1ccccc1)C(=O)c1cc(COc2ccc(F)cc2Cl)on1	8	.	.	.	9.3
COc1ccc(-c2noc3c2-c2nc(C4CCCCC4)sc2CC3)cc1	-6	.	.	.	-4.2
COc1ccc2[nH]c(C)c(CCNC(=S)Nc3cc(C)cc(C)c3)c2c1	-1	-34	-4	.	0.8
O=C(NCCN1CCOCC1)c1ccc(-c2ccccc2)cc1	-13	-16	-5	-4%	-0.9
COc1ccc(-c2nc3ccccc3o2)cc1NC(=O)CSc1ccc(Cl)cc1	-2	-6	-6	-1%	3.7
CCCCCC(=O)NCC(C)NC(=O)CCCCC (stereo unspecified)	4	-8	1	8%	-3.3
O=C(Nc1ccc(CN2CCOCC2)cc1)c1ccc(-c2cccc(Cl)c2)o1	96	-25	-35	9%	2.8
Cc1cc(C(C)(C)C)ccc1OCCN1CCCC1	-2	2	-5	3%	0.9
Cc1ccccc1Oc1nc2ccccc2n2cnnc12	-5	.	14	0%	-0.2
COc1ccc(-c2ccc(SCC(=O)Nc3nnc(C)s3)nn2)cc1	3	.	8	-1%	1.2
Cc1ccc(CCN2CC(C(=O)NCCCN3CCCCC3)CC2=O)cc1 (stereo unspecified)	1	.	.	.	0.9
COc1ccc(CC(=O)NCc2n[nH]c(=S)n2-c2cccc(Cl)c2)cc1	-1	.	0	4%	-1.0
CC1C/C=C/C=C/C=C/C=C/C(O[C@@H]2O[C@H](C)[C@@H](O)[C@H](N)[C@@H]2O)CC2OC(O)(CC(O)CC3OC3/C=C/C(=O)O1)CC(O)C2C(=O)O (stereo partly specified)	.	-50	-2	.	.
CN(CC(=O)Nc1cccc(F)c1)C(=O)Cn1c(=O)cnc2ccccc21	-4	.	.	.	1.4
Cc1ccc2nc3c(cc2c1)c(NC(=O)C1CCCO1)nn3CC(C)C (stereo unspecified)	10	0	1	-3%	-76
COCCNC(=O)c1ccc(C2SCC(=O)N2CCc2ccccc2)cc1 (stereo unspecified)	-7	.	.	.	-0.6

The list continues:
SMILES	Mtb bLac sens	YopH inh	Arbovirus inh	Mtb H37Rv	RecA splice inh	others
CCn1c2ccccc2c2cc(NS(=O)(=O)c3ccc(C)cc3)ccc21	21	-5	-19	4%	7.6
Cn1cc(CN2CCC(n3nccc3NC(=O)CCc3ccccc3)CC2)cn1	-6	.	.	.	-1.6
CCSc1nc2c(cnn2-c2ccccc2)c(=O)n1N	-4	.	.	-6%	.
COc1ccc(Cn2nnnc2C(c2cc3ccc(OC)cc3[nH]c2=O)N2CCC(C)CC2)cc1 (stereo unspecified)	12	-12	9	0%	-5.2
Cc1cc(C)n(-c2ccc(F)cc2CN2CCN(C3CCCC3)C(CCO)C2)n1 (stereo unspecified)	0	.	-1	-1%	0.8
O=C(Nc1cc(SCC(O)CO)cc([N+](=O)[O-])c1)c1ccc(-n2cnnn2)cc1 (stereo unspecified)	-8	.	2	0%	-4.0
CN(c1ccccc1C(=O)O)S(C)(=O)=O	4	-4	3	-2%	2.8
CC(C)(C)C(=O)Nc1c(Br)c(C2CC2)nn1-c1ccccc1	2	.	.	3%	-0.6
CC1(C)Cc2c(sc3c2c(=N)n(Cc2ccco2)c(=O)n3CC(=O)Nc2ccc(Cl)cc2)CO1	63	.	.	15%	1.8
O=C(c1cccs1)N1CCCC1	-5	-20	3	-26%	2.4
O=C1[C@H]2[C@H](ON3CCCC[C@H]23)C(=O)N1c1cccc(C(F)(F)F)c1	-9	.	2	-2%	-5.4
Cc1cc(Br)ccc1NC(=O)C1C2CCC(O2)C1C(=O)O (stereo unspecified)	3	.	.	.	2.4
Cc1c(NC(=O)Nc2ccc3c(c2)OCO3)cccc1[N+](=O)[O-]	-1	.	.	.	-2.7
COc1ccc(S(=O)(=O)N2CCC(C(=O)N3CCN(C)CC3)CC2)cc1Cl	-4	.	.	.	-3.1
O=C(Nc1ccc(N2CCCC2)cc1)c1cccc(Cl)c1Cl	-3	.	.	.	-1.6
Cc1onc(-c2ccccc2Cl)c1C(=O)OCC(=O)c1ccc2c(c1)OCCO2	-2	-32	10	-7%	15
CCSCCOC(=O)C1=C(C)NC(=O)NC1c1cc(OC)ccc1OC (stereo unspecified)	-1	-33	13	0%	-3.5	Arbovirus inh repeat=1
Cc1c(C(=O)/C=C/N(C)C)nnn1-c1ccc(Cl)c(Cl)c1	6	.	.	-3%	1.4
CNCCOCC(O)CSc1ccccc1 (stereo unspecified)	-5	-31	8	3%	-0.6
Cc1ccc(C)c(CN2CCN(c3ncccn3)CC2)c1	-12	.	.	.	-0.8
CCOC(=O)COc1nc(-c2ccco2)cc(-c2ccco2)c1C#N	18	.	.	6%	-1.0
COc1ccc2c(CC(=O)OCC(=O)c3ccccc3OC)coc2c1	-6	5	0	3%	-5.0
CCOCCCNC(=O)C1CCCCN1S(=O)(=O)c1ccc(F)cc1 (stereo unspecified)	10	-46	3	-7%	0.5
CCOc1cc(N2CCOCC2)c(OCC)cc1NC(=O)CSc1nccc(C)n1	5	.	2	6%	-2.9
O=c1cc(N2CCC(Cc3ccccc3)CC2)[nH]c(=O)n1C1CCCCC1	-1	-42	-4	14%	1.8

Reprinted at random: two records from the list, in no set order.
SMILES	Mtb bLac sens	YopH inh	Arbovirus inh	Mtb H37Rv	RecA splice inh	others
O=C(O)CCc1nc2ccccc2c(=O)[nH]1	-10	.	.	-17%	-5.3
CCCCCCCCCCCCS(=O)(=O)CCC(=O)O	0	.	.	-6%	-1.4

Further structures
SMILES	Mtb bLac sens	YopH inh	Arbovirus inh	Mtb H37Rv	RecA splice inh	others
O=S(=O)(CCSc1ccccn1)c1nc2ccccc2s1	93	-5	-38	2%	40*
O=C(/C=C/c1c(F)cccc1Cl)Nc1nn[nH]n1	-3	.	1	3%	-1.2
Cc1ccc(NC(=S)N/N=C/c2cccn2Cc2ccccc2F)cc1	-3	.	.	1%	3.5
Cc1ccc(C(=O)C2=C(O)C(=O)N(CCCN(C)C)C23C(=O)N(C)c2ccccc23)o1 (stereo unspecified)	3	.	.	3%	4.6
O=C(Nc1cccc(F)c1)c1ccc(Cn2cc([N+](=O)[O-])cn2)o1	100	.	-3	52%	.
O=[N+]([O-])c1ccc(CSc2nnc(-c3cnccn3)o2)cc1	1	-21	-13	-5%	-0.3
Cc1cccc(NC(=O)CSc2nc3c(c(=O)[nH]2)CCC3)c1C	1	-28	4	2%	0.9
ClCCN1CCN(c2ccnc3cc(Cl)ccc23)CC1	5	.	.	.	2.2
CC(=O)N1CCN(CCN=CC2=C(O)CC(c3cccs3)CC2=O)CC1 (stereo unspecified)	-6	-38	7	1%	-1.7	Arbovirus inh repeat=0
Cc1ccc(-c2nnc(-c3cccnc3)o2)cc1	-1	.	.	.	4.4
Cn1c(O)c(C=NC2CCN(Cc3ccccc3)CC2)c(=O)n(C)c1=O	-2	.	.	.	-0.6
CN(CC(=O)Nc1ccccc1Cl)C(=O)COC(=O)CN1C(=O)NC2(CCCC2)C1=O	-10	.	.	.	2.8
COc1ccc(C(=O)N2CCN(C(=O)C3COc4ccccc4O3)CC2)cc1OC (stereo unspecified)	2	.	.	.	2.3
CCCC(c1c(C)n(C)n(-c2ccccc2)c1=O)c1c(C)n(C)n(-c2ccccc2)c1=O	-8	-56	6	-1%	-6.6	Arbovirus inh repeat=1
Clc1ccc(CSc2nnc3c(n2)[nH]c2ccccc23)cc1	-2	.	.	0%	-0.6
CCc1cc(C(=O)NCC2CCCO2)sc1C (stereo unspecified)	-7	.	.	.	-1.7
COc1cc(NC(=S)Nc2ncccc2C)cc(OC)c1OC	69	.	0	6%	-0.9
CC(C)CC1C(C#N)=C(N)Oc2n[nH]c(-c3cccs3)c21 (stereo unspecified)	-7	-3	0	2%	86*
O=C(Nc1cccc(Cl)c1)c1ccc2c(c1)SC1=NS(=O)(=O)CCN12	.	.	-3	5%	.
